# GIRK2 act: activators of human GIRK2 potassium channels. actives 0.05% (n = 63,000). calls only for hits at 25 µM. AID 1259325, 2017. HEK293-GIRK2 thallium flux, Thallos fluorescence;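 active means among the strongest 0.2% of first-round signals and kept after retests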;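 further: first round at about 10 µM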
# Target sequence (P48051 whole entry, looked up): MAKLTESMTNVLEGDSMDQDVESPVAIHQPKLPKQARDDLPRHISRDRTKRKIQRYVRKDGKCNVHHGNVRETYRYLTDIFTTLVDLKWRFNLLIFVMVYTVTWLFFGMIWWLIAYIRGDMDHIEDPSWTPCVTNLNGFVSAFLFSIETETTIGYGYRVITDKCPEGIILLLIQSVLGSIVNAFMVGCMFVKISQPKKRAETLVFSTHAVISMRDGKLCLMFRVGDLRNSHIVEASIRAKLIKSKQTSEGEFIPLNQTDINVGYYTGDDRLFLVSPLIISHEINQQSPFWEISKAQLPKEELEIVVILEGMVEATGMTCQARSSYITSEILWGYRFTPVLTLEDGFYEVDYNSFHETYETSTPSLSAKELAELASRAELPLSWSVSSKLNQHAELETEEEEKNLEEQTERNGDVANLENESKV
# Calls only; i = inactive. This is a subset, so the mix of outcomes need not match the whole.
GIRK2 act | compound
i | Cc1ccc2nc(N(CCN3CCOCC3)C(=O)C3CCCCC3)sc2c1
i | CCOc1cc(-c2ccc(C)cc2)nc2ccc(C(=O)N3CCC4(CC3)OCCO4)cc12
i | CCCN(C)c1nccn2c(=O)n(CC(=O)Nc3cc(C)ccc3C)nc12
i | CCOc1ccc(N(C)S(=O)(=O)c2ccsc2C(=O)Nc2cc(OC)cc(OC)c2)cc1
i | COc1cccc(CC(=O)NCCc2nc3c(c(C(F)(F)F)n2)CCCC3)c1
i | CS(=O)(=O)N1CCC(C(=O)N2CCN(c3cc(-c4ccccc4)ncn3)CC2)CC1
i | C=CCN(c1ccccc1)S(=O)(=O)c1ccsc1C(=O)OC
i | COc1cccc(C(=O)NCCS(=O)(=O)NCc2cccnc2)c1
i | COc1ccc2c(=O)c3c(oc2c1)C(=O)N(CCCN(C)C)C3c1ccccc1 (centres undefined)
i | O=C(CSc1nnc(Cn2ccc(=O)[nH]c2=O)o1)NNC(=O)c1ccccc1
i | COCC1CCCN(CC(=O)Nc2cccc(Cl)c2)C1 (centres undefined)
i | CC(=O)Nc1ccc(C(=O)NCCNS(=O)(=O)c2ccc3c(c2)CCCC3)cc1
i | COc1cc(/C=C2\SC(=S)N(c3ccccc3F)C2=O)cc(OC)c1OC
i | COC(=O)c1c(NCc2cc(OC)ccc2OC)c2cccc(Cl)c2[nH]c1=O
i | Cc1cc(C(O)CCNC(=O)/C=C/c2cccs2)c(C)o1 (centres undefined)
i | Cc1ccc(-c2ccc3nnc(CCC(=O)NCc4ccc(F)cc4Cl)n3n2)cc1
i | COc1ccccc1NC(=O)C(=O)NCCC1CCCCN1S(=O)(=O)c1ccccc1 (centres undefined)
i | COc1cc(Cl)c(C)cc1N1C=C(C#N)S(=O)(=O)c2ccc(F)cc21
i | Cc1ccc(Cl)cc1NC(=O)Cn1cccc(S(=O)(=O)N2CCC(C)CC2)c1=O
i | COc1ccc(CCC(=O)NC2CCCC(OC(=O)Nc3ccc(F)cc3)C2)cc1 (centres undefined)
i | C=CCOCC(O)Cn1c(NCCN(C)C)nc2c1c(=O)[nH]c(=O)n2C (centres undefined)
i | Cc1noc(CNC(=O)/C=C/c2ccccc2Cl)n1
i | C=C(C)COc1ccc(-c2[nH]ncc2-c2ccccc2)c(O)c1
i | CC(=O)COc1ccc2c(c1)O/C(=C\c1ccc(Cl)cc1Cl)C2=O
i | COc1cccc(/C=C2\Oc3c(ccc4c3CN(CC3CCCO3)CO4)C2=O)c1OC (centres undefined)
i | COc1ccccc1N1CCCn2c1nc1c2c(=O)n(CC(N)=O)c(=O)n1C
i | COc1cccc(CSc2nc3c(c(=O)[nH]2)CN(Cc2ccccc2)CC3)c1
i | Cc1cc(C)c2nc(-n3nc(C)cc3NC(=O)c3ccc(S(=O)(=O)N4CCCC4)cc3)sc2c1
i | O=C(Cn1nc2c(c1NC(=O)c1c[nH]c3ccccc13)CSC2)NCCc1ccccc1
i | COc1ccc(CCNC(=O)Cn2c(=O)n(Cc3nc(C)no3)c(=O)c3ccccc32)cc1OC

# (more compounds)
GIRK2 act | compound
i | COc1ccc(-n2c(C)cn3c4c(=O)n(CC(N)=O)c(=O)n(C)c4nc23)c(OC)c1
i | Cc1ccnc(Nc2cc(NCCNC(=O)Nc3ccc4c(c3)OCCO4)nc(C)n2)c1
i | COCCNC(=O)Nc1nc2cc3c(cc2s1)OCO3
i | O=C(c1cn(-c2cc(N3CCCCC3)ncn2)cn1)N1CCC2(CC1)OCCO2
i | CSc1ccc(-c2noc(Cn3nc(-c4ccccc4Cl)ccc3=O)n2)cc1
i | COc1ccc2nc(-n3nc(C)cc3NC(=O)Cc3ccc4c(c3)OCO4)sc2c1
i | Cn1nc(-c2ccc(NC(=O)c3ccc([N+](=O)[O-])cc3Cl)cc2)ccc1=O
i | COc1ccc(NC(=O)C(=O)NC2CCCC2)cc1Cl
i | COCCCn1cnc2c(-c3ccccc3)cn(CC(=O)Nc3cccc(OC)c3)c2c1=O
i | COCCNC(=O)N1CCN(c2nc3ccc(F)cc3s2)CC1
i | Cc1ccc(-c2ccc3nnc(CCC(=O)NCc4ccc(C(F)(F)F)cc4)n3n2)cc1C
i | CCOc1ccc(-c2noc(Cc3nc(-c4ccc(F)cc4)cs3)n2)cc1
i | O=C(Nc1cc(OCc2ccccc2)ncn1)c1ncccn1
i | C/C(=C\Cc1cc(C(=O)O)cc(CCC(C)C(=O)/C=C/C(C)(C)O)c1O)CO (centres undefined)
i | COc1ccccc1-c1coc2c3c(ccc2c1=O)OCN(CCc1ccccc1)C3
i | O=C(COc1ccc(Cl)cc1Cl)NCCC(O)c1ccccc1 (centres undefined)
i | Cc1cn2c3c(=O)n(CC(N)=O)c(=O)n(C)c3nc2n1-c1cccc(Cl)c1
i | Cc1ccc(-n2ccn(CC(=O)c3ccc(F)cc3)c(=O)c2=O)cc1C
i | CCOC(=O)N1CCc2c(sc(NC(=O)c3ccccc3OC)c2-c2nc3ccccc3s2)C1
i | O=C(NCCN1CCN(c2ccc(F)cc2)CC1)c1ccc2c(c1)OCO2
i | O=C(CN1CCN(c2ccc(F)cc2)C1=O)N(CCO)Cc1ccccc1
i | CCc1ccc(N2C(=O)N(CC(=O)C(C)(C)C)c3ccccc3S2(=O)=O)cc1
i | COc1ccc(-c2cc3c(=O)n(Cc4nc(-c5ccc(C)cc5)oc4C)ccn3n2)cc1
i | O=C(Cc1ccccc1)Nn1c(SCc2ccncc2)nc2ccccc2c1=O
i | COc1ccc(-c2cc3c(=O)n(CC(=O)Nc4ccc(Oc5ccccc5)cc4)ccn3n2)cc1
i | Cc1noc(C2CN(CC(=O)Nc3nnc(C)s3)C2)n1
i | C=C(C)C1Cc2c(ccc3c2OCC(c2ccc(O)cc2O)C3)O1 (centres undefined)
i | O=C(NCC1CCN(C(=O)c2ccoc2)CC1)NC12CC3CC(CC(C3)C1)C2
i | Cc1ccc(OCC(O)CN2C(C)(C)CC(O)CC2(C)C)cc1 (centres undefined)
i | CCOC(=O)c1ccccc1NC(=O)CSc1nnc2ccc(C(=O)Nc3cccc(F)c3)cn12

# 3 structures already listed, ordered by SMILES length, rising.
GIRK2 act | compound
i | Cc1ccc(OCC(O)CN2C(C)(C)CC(O)CC2(C)C)cc1 (centres undefined)
i | COc1ccc2nc(-n3nc(C)cc3NC(=O)Cc3ccc4c(c3)OCO4)sc2c1
i | CCc1ccc(N2C(=O)N(CC(=O)C(C)(C)C)c3ccccc3S2(=O)=O)cc1

# (next part)
GIRK2 act | compound
i | O=C(NCCN1CCN(c2ccccc2)CC1)c1ccco1
i | O=C1NC(=O)/C(=C/c2ccc(-c3ccc(F)cc3)o2)S1
i | CCc1ccc(CNC(=O)c2sccc2N(C)S(=O)(=O)c2ccc(C)cc2)cc1
i | Cc1cccc(Nc2nc(C(=O)NCc3cccs3)cs2)n1
i | O=C(c1ccco1)N1CCN(C(=O)C2COCC(=O)N2Cc2cccs2)CC1 (centres undefined)
i | Cc1ccc(N2CC(C(=O)NCC(O)c3cccn3C)CC2=O)cc1C (centres undefined)
i | O=C(CC12CC3CC(CC(C3)C1)C2)N1CCN(CCO)CC1
i | COc1ccc(F)cc1S(=O)(=O)N1CCC(Oc2ccc(C(F)(F)F)cn2)CC1
i | CS(=O)(=O)C1CCN(C(=O)c2ccsc2)C1 (centres undefined)
i | Cc1ccnc(Nc2nc(CC(=O)NCc3c(F)cccc3F)cs2)c1
i | O=C(c1ccc(Nc2nn3c(=O)c4ccccc4nc3s2)cc1)N1CCN(c2ccccn2)CC1
i | O=C(CCSc1ccccc1)NCC1(O)CCc2ccccc2C1 (centres undefined)
i | COc1ccc(-c2cc3ccc4c(c3oc2=O)CN(Cc2cccnc2)CO4)cc1OC
i | CC(=O)COc1ccc(N2CCn3c2nc2c3c(=O)n(C)c(=O)n2C)cc1
i | CCOC(=O)c1sc2ccccc2c1S(=O)(=O)NCc1ccco1
i | O=C(Cc1cccs1)Nc1ccc(SCc2ccc(F)cc2)nn1
i | O=c1cc(-c2cc(Br)cc3c2OCOC3)oc2ccc(Cl)cc12
i | O=C(Nc1ccc(Br)cc1-c1nc2ccccc2[nH]c1=O)c1cccs1
i | CCN(C(=O)Cn1ccn2nc(-c3ccc(OC)c(OC)c3)cc2c1=O)c1cccc(C)c1
i | COc1ccc(S(=O)(=O)NCC(c2ccc(F)cc2)N2CCN(C)CC2)cc1OC (centres undefined)
i | C=CCNC(=O)Nc1ccc(-c2cnc3n2CCC3)cc1
i | Cc1c(-c2ccccc2)nn2c1NC(=O)C2CC(=O)Nc1ccccc1 (centres undefined)
i | CCCCC[C@@H](O)/C=C/[C@H]1[C@H](O)CC(=O)[C@@H]1C/C=C\CCCC(=O)O
i | COc1ccc(Cl)cc1NC(=O)CSc1nc2cn(C)nc2c(=O)n1CC(C)C
i | Cc1ccc(-n2cc(C(=O)N3CCC(NC(=O)c4ccncc4)CC3)nn2)cc1
i | Cc1cc(Cl)n2ncc(-c3ccccc3Cl)c2n1
i | Cc1ccc(Cn2c(=O)n(CC3CCC(C(=O)NCc4ccco4)CC3)c(=O)c3sccc32)cc1 (centres undefined)
i | COc1ccc(CNC(=O)Nc2cc(N3CCCC3)ncn2)cc1OC
i | COC(=O)c1ccc(NC(=O)c2c[nH]c3ccccc3c2=O)cc1
i | Cc1ccc2nc(N3CCN(C(=O)c4ccccn4)CC3)sc2c1

# (list continues)
GIRK2 act | compound
i | Cc1cccc(CS(=O)(=O)N2CC(c3nc(Cc4ccccc4)no3)C2)c1
i | Cn1nc(CNC(=O)CC2CCCC2)cc1-c1ccco1
i | O=S(=O)(Cc1ccccc1)NCC1(c2cccs2)CCOCC1
i | COc1ccc(CCNC(=O)CSc2nc3sc(C)cc3c(=O)n2C)cc1OC
i | CN(C)C=NC(=S)N=CN(C)C
i | Cn1c(C(F)(F)F)nn(CCNC(=O)C2CC(=O)N(c3ccccc3)C2)c1=O (centres undefined)
i | COc1ccc(CCNC(=O)C(=O)NCC2OCCCN2S(=O)(=O)c2ccccc2)cc1 (centres undefined)
i | O=C(c1ccc2ncsc2c1)N1CCN(C(=O)C2CC2c2ccccc2)CC1 (centres undefined)
i | COc1cccc(CNC(=O)c2nnn(-c3ccc(Cl)cc3)c2-c2cccnc2)c1
i | COC(=O)Nc1nc2ccc(Sc3ccc(NC(=O)Nc4cc(C(F)(F)F)ccc4F)cc3)cc2[nH]1
i | COc1ccc(-c2nnc(NC(=O)CCCS(=O)(=O)Cc3ccccc3)o2)c(OC)c1
i | O=C(NCc1ccc(C(O)c2cccs2)s1)c1ccc(OC(F)(F)F)cc1 (centres undefined)
i | O=C(CCc1ccccc1)Nc1cc(N2CCCC2)ncn1
i | COc1ccc(NC(=O)c2sccc2S(=O)(=O)N(C)c2ccc(Cl)cc2)cc1OC
i | O=C(/C=C/c1ccc2c(c1)OCO2)N1CCC(COCc2ccccc2)CC1
i | COc1cccc(S(=O)(=O)N2CCN(c3ccc(Cl)c(Cl)c3)CC2)c1
i | CSc1nc2ccc(NC(=O)NCc3cccs3)cc2s1
i | Cc1ccc(S(=O)(=O)N(C)c2cc(S(=O)(=O)NCc3ccccc3)c(C)cc2C)cc1
i | CC(Cc1cccs1)NS(=O)(=O)c1ccc2c(c1)OCCO2 (centres undefined)
i | Cc1ccc(N/C=C(\C#N)c2nc3ccccc3s2)cc1
i | O=C(c1cc(=O)c(OCc2ccccc2)co1)N1CCN(Cc2ccc3c(c2)OCO3)CC1
i | CCOc1ccc2nc(N(CCN3CCOCC3)C(=O)c3ccc(C#N)cc3)sc2c1
i | O=C(NCC1CCCO1)c1cc2n(n1)CCCO2 (centres undefined)
i | COc1cc(OC)cc(C(=O)NNC(=O)c2ccc(=O)n(Cc3ccc(Cl)cc3)c2)c1
i | COCCCNC(=O)CCn1cnc2c([nH]c3ccc(C)cc32)c1=O
i | COc1cccc(COc2cn(C)c(C(=O)Nc3ccc(OC(F)(F)F)cc3)cc2=O)c1
i | O=C(c1ccoc1)N1CCC(CNS(=O)(=O)c2ccccc2Br)CC1
i | Cc1csc(SCC2CCN(C(=O)Cc3ccccc3Cl)CC2)n1
i | O=C(CSCc1ccccc1)Nc1nnc(-c2ccsc2)o1
i | CSc1ccccc1NC(=O)Cc1csc(Nc2nc(C)cc(C)n2)n1

# 4 records drawn at random from the list so far, as already listed:
GIRK2 act | compound
i | Cc1cccc(CS(=O)(=O)N2CC(c3nc(Cc4ccccc4)no3)C2)c1
i | Cc1ccc(N/C=C(\C#N)c2nc3ccccc3s2)cc1
i | O=C(NCC1CCCO1)c1cc2n(n1)CCCO2 (centres undefined)
i | COc1ccc(-c2nnc(NC(=O)CCCS(=O)(=O)Cc3ccccc3)o2)c(OC)c1

# Additional structures.
GIRK2 act | compound
i | CCOc1cccc2cc(C(=O)Nc3nnc(-c4csc(C)n4)o3)oc12
i | O=S(=O)(c1ccc(OC(F)(F)F)cc1)N1CCC2(CC1)OCCS2
i | C[C@@H](Oc1cc(-n2cnc3ccc(OC4CCN(C)CC4)cc32)sc1C(N)=O)c1ccccc1Cl
i | O=C(c1cccs1)N1N=C(c2ccc(Br)cc2)CC1c1nc2ccccc2[nH]1 (centres undefined)
i | COc1ccc(-c2cc(N3CCC(C(=O)Nc4nnc(C)s4)CC3)ncn2)cc1
i | CSc1cccc(NC(=O)CN2N=NC3C(=O)N(c4ccc(F)c(F)c4)C(=O)C32)c1 (centres undefined)
i | CSc1ccc2nc(NC(=O)Nc3cccs3)sc2c1
i | O=c1c2sccc2n(Cc2nc(-c3ccccc3)no2)c(=O)n1-c1ccc(Cl)cc1

# Part of the list above in a different format.
O=S(=O)(c1ccc(OC(F)(F)F)cc1)N1CCC2(CC1)OCCS2
  GIRK2 act = i

C[C@@H](Oc1cc(-n2cnc3ccc(OC4CCN(C)CC4)cc32)sc1C(N)=O)c1ccccc1Cl
  GIRK2 act = i

# Of the compounds above, these contain a COOH group:
GIRK2 act | compound
i | C/C(=C\Cc1cc(C(=O)O)cc(CCC(C)C(=O)/C=C/C(C)(C)O)c1O)CO (centres undefined)
i | CCCCC[C@@H](O)/C=C/[C@H]1[C@H](O)CC(=O)[C@@H]1C/C=C\CCCC(=O)O

# Compound activity: PubChem, Vanderbilt University
